Bioassay records as filed in PubChem.
gsp ag = agonists of gsp mutant (McCune-Albright syndrome) | gsp mutant cells, cAMP HTRF, 30 min; control for the full effect not named in the record | Potency, µM (titrated, usually from 76.9 µM), without a hit: at the top dose activation (cAMP increase), usual class: activators | 340,000 tested, 0.13% active | AID 624287; active = well fitted activation curve with a large enough effect; inconclusive = small, poorly fitted or top-dose-only effect, or another doubt; inactive = no such curve, though single readings can be large or run the other way; cell line not stated here;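 also: phosphodiesterase inhibitor Ro 20-1724 added with compounds to block cAMP breakdown; potency is read from the fitted curve at half-maximal effect; nearly all actives have a fitted effect of over 60% in size; about a fifth of the inactives were tested at one dose only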
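Cells in DMEM/10% FBS with G418 were pretreated with compounds in DMSO plus […] (300 uM stock) for 30 min at 37C. cAMP was measured by HTRF (cAMP-d2 plus anti-cAMP antibody-K) after 30 min at room temperature.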
ClpP mod = qHTS Assay for Activators of ClpP | ATP-dependent Clp protease proteolytic subunit (Bacillus subtilis (strain 168)), P80244 | purified B. subtilis ClpP, FRET peptide cleavage, 20 min | Potency, µM (series often up to 57.5 µM), inactives show at the top dose activity change, negative = active | 340,000 tested, 1.9% active | AID 651965, 2013; active = well fitted falling curve with a large enough effect; inconclusive = small, poorly fitted or top-dose-only effect; inactive = no such curve, though single readings can be large or run the other way; also: potency is read from the fitted curve at half-maximal effect; the source files actives as falling curves though it sought activators and does not explain the sign; nearly all actives have a fitted effect of over 65% in size; many hits overshoot -100%
Target sequence (P80244 whole entry, looked up): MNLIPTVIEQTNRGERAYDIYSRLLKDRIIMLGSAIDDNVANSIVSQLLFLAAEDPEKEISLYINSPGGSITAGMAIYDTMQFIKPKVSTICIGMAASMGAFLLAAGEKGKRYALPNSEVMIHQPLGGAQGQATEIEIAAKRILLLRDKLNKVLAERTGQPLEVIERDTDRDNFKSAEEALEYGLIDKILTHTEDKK
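ClpP 10 microg/mL final, pH 8 Tris/KCl buffer with BSA, glycerol, Tween-20; compound pinned in; FRET-FV substrate; RT 20 min; Ex320/Em430; ΔFRET vs ADEP 5.8 microM, DMSO, no enzyme.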
PINK1 modulator = changes PINK1 expression. AID 624263. Potency, µM (doses to about 76.6 µM), for inactives: at the top dose activation (PINK1 increase), most hits filed as activators. PINK1 immunofluorescence, high-content cytometry, 24 h. 410,000 tested, 0.2% active; active = well fitted activation curve with a large enough effect; inconclusive = small, poorly fitted or top-dose-only effect; inactive = flat fitted curve, though single readings scatter; cell line not stated here;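 also: potency is read from the fitted curve at half-maximal effect; % of control where 0% means no effect; nearly all actives have a fitted effect of over 65% in size; a mitochondrial uncoupler was the plate control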
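Readout is PINK1 immunofluorescence, quantified alongside mitochondrial, cell and nuclear markers by laser-scanning microplate cytometry. Cells from a stable line were exposed to compound titrations (5 concentrations) for 24 hours, with CCCP controls.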
Menin-MLL FL inh = inhibitors of human menin-MLL interaction, wild-type MLL peptide. Fluorescence polarization, fluorescein-MLL peptide displacement from menin. FP activity change, % at 61.4 µM. 290,000 tested, under 10 active. AID 1766; inconclusive = falling polarisation curve, or a change in total fluorescence; inactive = total fluorescence flat and polarisation flat or rising; no compound was filed as active; the % refers to the polarisation; negative = inhibition;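 also: % of control where 0% means no effect; inhibitors lower the polarisation; unlabelled MLL peptide was the positive control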
Sfp inh = Sfp phosphopantetheinyl transferase inhibition | Q9F4F7 | Biochemical Sfp PPTase activity, qHTS | Potency, µM, without a hit: max response, negative = inhibition, most hits filed as inhibitors | 310,000 tested, 3.5% active | AID 1490; active = well fitted inhibition curve with a large enough effect; inconclusive = small, poorly fitted or top-dose-only effect, or another doubt; inactive = no such curve, though single readings can be large or run the other way;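 also: the enzyme is Sfp with the accession as filed and its product quenches rhodamine fluorescence; potency is read from the fitted curve at half-maximal effect; 0% = enzyme reaction without inhibitor and -100% = no enzyme wells; top concentration of the series not given in the record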
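After 15 min at room temperature with compound, 15 nM Sfp received 5 uM rhodamine-CoA plus 12.5 uM BHQ-2-ybbR (50 mM Hepes pH 7.6, 10 mM MgCl2). Rate came from the fluorescence difference over 30 min, ex 525/em 598 nm.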
D2 ag = agonists of human D2 dopamine receptor (beta-arrestin); DiscoveRx PathHunter D2 beta-arrestin, luminescence, 90 min; 100% = 57 uM dopamine signal; activation, % (concentration not given with the values); 360,000 tested, 0.084% active; AID 624465; in the data active = activation above about 40%; inconclusive = about 15% to 40%; inactive = below about 15%; also: compound concentration not given in the record; the text of the record calls up to 30% inactive
Target sequence (P14416 whole entry, looked up): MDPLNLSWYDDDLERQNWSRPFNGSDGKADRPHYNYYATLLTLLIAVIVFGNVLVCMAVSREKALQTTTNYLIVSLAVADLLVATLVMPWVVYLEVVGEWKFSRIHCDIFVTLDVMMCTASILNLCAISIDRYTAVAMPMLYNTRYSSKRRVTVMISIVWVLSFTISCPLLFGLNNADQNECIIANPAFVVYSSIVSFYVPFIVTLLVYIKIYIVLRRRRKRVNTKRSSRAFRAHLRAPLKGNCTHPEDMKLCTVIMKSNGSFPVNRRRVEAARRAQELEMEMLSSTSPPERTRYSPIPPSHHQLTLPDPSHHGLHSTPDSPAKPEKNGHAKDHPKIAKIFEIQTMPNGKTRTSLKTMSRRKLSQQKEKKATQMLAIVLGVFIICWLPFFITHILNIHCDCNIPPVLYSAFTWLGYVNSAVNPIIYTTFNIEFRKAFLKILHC
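DiscoveRx PathHunter D2 beta-arrestin cells (2,100/well) attached overnight, then compound-stimulated 90 min at 37 C in HBSS/10 mM HEPES/0.1% Tween-20 buffer; beta-galactosidase complementation read by luminescence after 1 h at ambient temperature. Dopamine 57 uM final (EC100) as control.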
gsp antag = antagonizes gsp, the McCune-Albright syndrome mutation; gsp-mutant cells, cAMP HTRF, 30 min; control for the full effect not named in the record; Potency, µM (titrated, usually from 76.9 µM), without a hit: at the top dose activity change, negative = inhibition, most hits filed as inhibitors; 340,000 tested, 0.4% active; AID 624288; active = falling curve of any shape with a large fitted effect; inconclusive = falling curve, mostly with a smaller effect; inactive = flat or rising curve; cell line not stated here;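 also: intracellular cAMP measured with PDE inhibitor Ro 20-1724 present during compound exposure; potency is read from the fitted curve at half-maximal effect; % is scaled to controls: 0 for no effect and ±100 for the full control effect; nearly all actives have a fitted effect of over 65% in size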
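HTRF cAMP read-out (cAMP-d2 plus anti-cAMP antibody-K in lysis buffer, 30 min RT). Before lysis, cells are exposed to compounds with […] for 30 min at 37C in DPBS containing Ca/Mg, BSA and Tween 20.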
* = called active by the depositor; ? = inconclusive; nt = no result given; [ ] = remark or other dose.

SMILES	gsp ag	ClpP mod	PINK1 modulator	Menin-MLL FL inh	Sfp inh	D2 ag	gsp antag
CC1=Nc2ccccc2/C1=C\c1nc(-c2ccc(F)cc2)oc1O	23%	0.6%	13%[38.3 µM]	?	-5%	-4.2	-10%
COc1ccc(NC(=O)CNC(=O)c2ccco2)cc1	-1%[15.4 µM]	-2.1%	1.2%	-2.8	10%	0.8	2%
Cc1c(C(=O)N2CCOCC2)c(S(=O)(=O)Nc2cccc(F)c2)c(C)n1C	16%	-0.7%	-0.9%	?	19%	-5.2	?
CCn1nnc(NC(=O)c2ccc(C(C)(C)C)cc2)n1	-8%	0.2%	0.1%	-2.8	-3%	0.8	3%
Nc1nc(SCCO)[nH]c(=O)c1NC(=O)c1ccccc1F	-10%[15.4 µM]	nt	12%	-6.2	-30%	-1.6	6%
CC(NC(=O)COC(=O)Cn1cc(C(F)(F)F)ccc1=O)c1ccccc1 (centres undefined)	-4%	0.4%	0.0%	nt	nt	5.4	0%
OC(c1ccccc1)c1nc(-c2ccc(Cl)cc2)cs1 (centres undefined)	nt	0.9%	5.2%	nt	nt	9.5	nt
CCn1c(=O)c(-c2cc(=O)[nH][nH]2)c(O)c2ccccc21	3%	nt	-1.0%	4.0	-8%	4.5	-11%
O=C(O)CCC(=O)Nc1ccc(Cc2ccc(NC(=O)CCC(=O)O)cc2)cc1	-18%	-5.3%	-1.2%	-1.1	17%	-1.5	9%
CS(=O)(=O)N(CCc1ccccc1)CC(=O)NCc1ccncc1	-40%[inhibitor]	0.3%	nt	0.7	3%	-0.1	5%
CCOC(=O)Cc1csc(NS(=O)(=O)c2ccc(OC)cc2)n1	1%	nt	-2.3%	-5.5	16%	-1.3	6%
Cc1ccc(C)c(C(=O)n2cnnc2N)c1	0%	-1.2%	1.0%	1.1	18%	0.0	5%
CS(=O)(=O)N(CCc1ccccc1)CC(=O)Nc1ccc(Br)cc1F	28%	-1.2%	3.4%	2.1	8%	-11	-10%
COc1ccc(OC)c(NC(=O)Nc2cccc(Cn3cccn3)c2)c1	-30%	2.5%	-1.3%	-0.6	-5%	-0.2	-8%
CCc1ccccc1NC(=O)c1ccccc1Sc1ccc([N+](=O)[O-])cc1Cl	?	-0.9%	0.2%	-1.3	8%	1.2	?
C/C(Cl)=C\Cn1c(=O)c2c(nc3n2CCS3)n(C)c1=O	-22%	-1.1%	-2.3%	1.1	-7%	0.2	2%
Cc1ccc(N(Cc2cc3ccccc3[nH]c2=O)C(=O)c2ccco2)c(C)c1	-2%	-21%	2.0%	0.3	-9%	-1.6	-10%
CC1Cc2cc(/C(O)=C3\C(=O)C(=O)N(Cc4ccncc4)C3c3ccccc3F)ccc2O1 (centres undefined)	3.2µM*	-4.4%	0.3%	nt	4%	-3.2	7%
N#CCCC1(CCC#N)c2ccccc2C(=O)c2ccccc21	nt	-10.0%	0.1%	nt	nt	-7.5	nt
CCOc1ccc(C(=O)NC(=S)N(Cc2ccccc2)Cc2ccccc2)cc1	-19%	0.9%	4.3%[38.3 µM]	-0.1	6%	-5.0	-3%
CC(=O)c1ccc(NC(=O)CC23CC4CC(C2)CC(n2nnc(C)n2)(C4)C3)cc1	-15%	nt	2.4%	1.3	0%	-1.8	-7%
Cc1ccc(N(CC(=O)Nc2cc(C)ccc2C)S(C)(=O)=O)cc1	10%	nt	0.7%	-1.3	7%	4.0	11%
COc1cc(C(=O)NC(C(=O)Nc2cccc(C(C)=O)c2)C(C)C)cc(OC)c1OC (centres undefined)	-8%[15.4 µM]	nt	0.8%	6.8	22%	-3.2	-5%
COc1cccc(CC(=O)N2CCC(n3nccc3NC(=O)C3CCOC3)CC2)c1 (centres undefined)	13%[15.4 µM]	0.5%	0.4%	0.4	9%	-1.1	6%
COc1ccc(CCNC(=O)CN2C(=O)NC3(CCc4ccccc43)C2=O)cc1 (centres undefined)	6%	1.7%	0.6%	nt	nt	2.5	-5%
SMILES	gsp ag	ClpP mod	PINK1 modulator	Menin-MLL FL inh	Sfp inh	D2 ag	gsp antag
COc1ccc(C(=O)N/C(=C\c2cn(C)c3ccccc23)C(=O)NCCCN2CCOCC2)cc1OC	8%	-1.4%	0.7%	0.1	10%	-1.3	-9%
N#Cc1ccccc1S(=O)(=O)N1CCN(C(=O)c2ccc(-n3cncn3)c([N+](=O)[O-])c2)CC1	7%[15.4 µM]	nt	5.3%	nt	nt	-4.0	6%
COC(=O)c1cc(NC(=O)CSc2nnc(N)s2)ccc1Cl	-15%	nt	2.9%	-1.1	-6%	-1.2	-7%
CCn1c(SCC(=O)Nc2cc(C)on2)nc2c(c1=O)SCC2	7%	-11%	-1.1%	nt	28%	-2.9	2%
COc1ccccc1CNS(=O)(=O)c1ccc(-n2cnnn2)c(OC)c1	28%	nt	0.2%	-3.1	-9%	1.3	-6%
COCCn1c(SCC(=O)c2ccc3c(c2)OCCO3)nnc1-c1ccco1	-15%	3.3%	0.0%	3.5	1%	-0.5	-7%
C/C(=N\OC(=O)c1cccc(C(F)(F)F)c1)c1sc(-c2ccccc2)nc1C	28%	1.2%	0.3%	-1.9	-7%	-4.1	13%
Cc1ccc(S(=O)(=O)NCC(=O)OCC(=O)NC(=O)NC2CCCC2)cc1	0%	0.5%	1.2%	-0.3	5%	-2.8	-1%
CC(C)(C)c1n[nH]c(=S)n(/N=C/c2cccs2)c1=O	-1%	0.9%	3.9%	4.5	8%	-1.0	2%
Cc1ccc(-n2cc(CN(C)CCc3cn[nH]c3)c(-c3cccc(C)c3)n2)cc1	-1%[15.4 µM]	nt	2.9%	-2.2	-10%	-5.8	16%
Cc1cc(C)cc(OCC(=O)OC(C)C(=O)Nc2c(C)n(C)n(-c3ccccc3)c2=O)c1 (centres undefined)	0%	0.1%	1.8%	nt	nt	-2.8	7%
Cc1nc(C)c(-c2nnc(-c3ccc(C(C)(C)C)cc3)o2)cc1C(=O)NN	21%[15.4 µM]	?	2.6%	4.7	-12%	6.7	-11%
CN(C(=S)NC(=O)c1ccc(Cl)cc1)C1CCCCC1	-47%	-1.1%	3.8%	-1.1	50µM*	1.0	7%
O=C(Nn1c(-c2ccc(Cl)cc2)nc2ccccc2c1=O)c1cccnc1Cl	-20%	-0.3%	-0.4%	4.7	16%	3.5	-4%
O=C1Cc2cc(O)ccc2O1	-2%	nt	-1.0%	nt	nt	0.1	-3%
O=C(NCc1ccc(F)cc1)c1cc2c(s1)CS(=O)(=O)C2	3%	0.2%	0.4%	nt	13%	-1.4	-16%
Cc1ccc(N(CC(=O)N/N=C/c2cc(C)n(-c3ccccc3C)c2C)S(C)(=O)=O)cc1	-2%	-2.8%	18%	3.7	10%	0.8	20%
COc1cc(CNC(=O)Nc2nnc([C@H]3C[C@H](O)[C@@H](CO)O3)s2)cc(OC)c1OC	nt	-1.5%	0.1%	nt	nt	-3.6	nt
Cc1ccc(NS(=O)(=O)c2ccc3c(c2)NC(=O)CCS3)c(Cl)c1	15%	-0.4%	-0.8%	nt	9%	0.9	-8%
O=C(O)CN1C(=O)NC2NC(=O)NC21 (centres undefined)	5%	-0.2%	3.3%[38.3 µM]	1.6	12%	0.9	4%
O=C(NC1=NCCS1)c1ccc([N+](=O)[O-])cc1Cl	-1%[15.4 µM]	nt	2.3%	-9.0	6%	7.1	14%
CCO[C@H]1OC(C(N)=O)=C[C@@H](C(C)(C)C)[C@@H]1CCCO	-9%	-0.4%	-1.0%	nt	nt	-5.3	7%
Cc1cccc(NC(=S)NCc2ccc3c(c2)OCO3)c1	-15%	-0.5%	-1.8%	2.5	11%	0.8	8%
O=C(Nc1ccc2c(c1)OCCO2)c1ccc(Cl)cc1	-1%	-1.2%	2.5%	1.2	4%	-1.6	-5%
Cc1cc2nc(SCC(=O)Nc3ccccc3C(=O)O)[nH]c2cc1C	-3%[15.4 µM]	nt	-0.9%	-1.0	12%	0.7	nt
SMILES	gsp ag	ClpP mod	PINK1 modulator	Menin-MLL FL inh	Sfp inh	D2 ag	gsp antag
O=C(CCC1CCCC1)NCCCN1CCOCC1	-39%[inhibitor]	2.3%	8.0%[38.3 µM]	1.3	22%	-1.9	6%
COc1ccc2nc(SCC(=O)Nc3ccc4c(c3)CCC4)[nH]c2c1	-2%[15.4 µM]	nt	4.6%	4.2	-9%	-0.4	-3%
CC(C)N(C(=O)CN1C(=O)C(=O)c2ccccc21)c1ccccc1	-2%[15.4 µM]	nt	0.3%	1.9	6%	-3.3	-3%
CN(C)c1ccc(/C=C2\SC(=S)N(Nc3ncc(C(F)(F)F)cc3Cl)C2=O)cc1	-29%	1.5%	18µM*	?	50µM*	-6.0	5%
CC1CCN(C(=O)c2ccc(-c3ccccc3Cl)o2)CC1	-11%[15.4 µM]	nt	6.7%	nt	nt	-11	-19%
Cc1noc(C)c1Cc1c(Cl)cccc1Cl	-7%	-0.5%	1.2%	3.3	5%	-1.7	9%[15.4 µM]
CN(C(=O)COC(=O)C1CCN(S(=O)(=O)c2cccs2)CC1)C1CCS(=O)(=O)C1 (centres undefined)	0%	0.7%	-1.7%	1.6	6%	-0.8	8%
O=C(Cc1csc(Nc2nc(=S)[nH]c3ccccc23)n1)NCCCN1CCN(c2cccc(Cl)c2)CC1	9%[15.4 µM]	nt	5.3%	7.6	18%	-5.7	-1%
CS(=O)(=O)N(CCc1ccccc1)CC(=O)NCc1ccc2c(c1)OCO2	-47%	-0.4%	-2.0%	-5.4	-14%	-1.3	5%
O=C(CSc1nnc(-c2cccs2)n1-c1ccccc1)N1CCOCC1	-34%[inhibitor]	-17%	0.4%	0.9	11%	-2.9	-6%
Nn1c(SCC(=O)Nc2ccc(N3CCOCC3)cc2)nnc1-c1cccc(F)c1	13%	-1.5%	4.2%	nt	nt	-3.7	6%
O=C1/C(=C/c2coc3ccc(O)cc3c2=O)SC(=S)N1c1ccccc1	-24%	5.6%	?	?	-19%	-0.7	-3%

Not a hit list. About 5.1% of those tested had a hit in this group.
